HPGD inh: qHTS Assay for Inhibitors of HPGD (15-Hydroxyprostaglandin Dehydrogenase); 15-hydroxyprostaglandin dehydrogenase [NAD(+)] (Homo sapiens), P15428; purified HPGD, NADH fluorescence kinetic, PGE2 substrate; Potency, µM, inactives show top-dose activity change, negative = inhibition, hits mostly inhibitors; 150,000 tested, 4.3% active; AID 894, 2007; active = well fitted inhibition curve with a large enough effect (not every such curve was filed as active); inconclusive = small, poorly fitted or top-dose-only effect, or another doubt; inactive = no such curve, though single readings can be large or run the other way;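 further: top concentration of the series not given in the record; plate controls included wells without enzyme; inactives centre near -10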
Target sequence (P15428 whole entry, looked up): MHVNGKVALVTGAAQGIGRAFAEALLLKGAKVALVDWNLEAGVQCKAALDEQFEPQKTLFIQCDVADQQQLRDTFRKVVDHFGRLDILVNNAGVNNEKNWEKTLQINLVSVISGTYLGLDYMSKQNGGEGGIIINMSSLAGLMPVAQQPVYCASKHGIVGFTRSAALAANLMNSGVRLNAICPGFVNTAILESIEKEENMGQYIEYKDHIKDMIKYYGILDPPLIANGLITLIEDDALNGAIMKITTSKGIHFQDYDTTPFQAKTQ
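20 nM HPGD preincubated 15 min at room temperature with compound in 50 mM Tris-HCl pH 8, 0.01% Tween 20. Started with 1 mM NAD+ and 30 uM prostaglandin E2; NADH fluorescence (360/450 nm) read 5 times over 30-s intervals, last minus first.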
Numbers without * were called inactive; ? = inconclusive; & = joins results of further samples. On the % scale 0 is the no-effect control and ±100 the full control effect; potency means the concentration at half of the fitted maximal effect. Some of the compounds tested (hit frequency here may not be typical).

A first look, 4 compounds:
SMILES	HPGD inh
O=C(COC(=O)C1(c2ccc(Cl)cc2)CCCC1)NC1CCS(=O)(=O)C1 (centres undefined)	0%
CC1(C)CC(=O)c2c(O)c(-c3ccccc3)c(=O)n(-c3ccccc3)c2C1	-9%
N[C@@H](Cn1c2c(c(=O)[nH]c1=O)CCC2)C(=O)O	-6%
Cc1ccc(NC(=O)c2oc(=O)c3ccccc3c2-c2ccccc2)c(C)c1	-2%

The listing, repeating the preview:
SMILES	HPGD inh
O=C(COC(=O)C1(c2ccc(Cl)cc2)CCCC1)NC1CCS(=O)(=O)C1 (centres undefined)	0%
CC1(C)CC(=O)c2c(O)c(-c3ccccc3)c(=O)n(-c3ccccc3)c2C1	-9%
N[C@@H](Cn1c2c(c(=O)[nH]c1=O)CCC2)C(=O)O	-6%
Cc1ccc(NC(=O)c2oc(=O)c3ccccc3c2-c2ccccc2)c(C)c1	-2%
COc1cccc(NC(=O)C2CCCN2C(=O)OCc2ccccc2)c1 (centres undefined)	-3%
CN(C)c1ccc(NC(=S)NC(=O)/C=C/c2ccc(Cl)cc2)cc1	0%
COc1ccc(C(=O)NN=C(Cc2ccccc2)Cc2ccccc2)cc1OC	-11%
S=c1[nH]nc(-c2ccncc2)n1/N=C/c1cccc2ccccc12	0.32µM*
Cc1ccc(S(=O)(=O)N2CCC(C(=O)N3CCC(C(=O)NCc4cccnc4)CC3)CC2)cc1	-7%
CC(=O)c1ccc(-c2cccc([C@H]3[C@@H]4C=CC[C@@H](C)[C@@H]4C(=O)N3Cc3ccccc3)c2)cc1	-13%
Oc1cc2c(cc1CN1CCN(c3cccc(C(F)(F)F)c3)CC1)CCC2	-1%
Clc1ccc(OCCn2ccnc2)c(Br)c1	-11%
O=C1c2ccccc2C(=O)N1Cc1cc(-c2ccccc2)no1	-18%
C=C(COC)C1=CCC(C(=O)OC)(C(=O)OC)[C@@H](C[N+](=O)[O-])c2ccccc21	-2%&-5%
CCCCNC(=O)c1ccc(Cc2nc3ccccc3[nH]2)cc1	-5%
O=C1CCCC=C1[C@@H](O)CCOC(c1ccccc1)(c1ccccc1)c1ccccc1	-10%
Cc1cccc(N2CN=c3s/c(=C\c4ccncc4)c(=O)n3C2)c1	-15%
COc1ccccc1NC(=O)CC1Nc2ccccc2NC1=O (centres undefined)	?
CC1Oc2ccccc2N(CC(=O)Nc2ccc3c(c2)OCO3)C1=O (centres undefined)	-5%
COc1ccc(CCNC(=O)COC(=O)Cc2cccc3ccccc23)cc1	?
CC(C)(C)OC(=O)NCCCC1=CC2=CC(=O)C(C)(OC(=O)CCc3ccccc3)C(=O)C2=CO1 (centres undefined)	-12%&-4%
CCOC(=O)CSCc1c(C#N)c2ccccc2n1C	-6%
CCCc1nc(Nc2nc3ccccc3o2)nc(C)c1C(=O)OCC	-21%
Cc1c(N=C2NC(=O)/C(=C/c3cccc([N+](=O)[O-])c3)S2)c(=O)n(-c2ccccc2)n1C	2.5µM*
COc1cccc(NC(=O)N(C2CCCCC2)C(C)c2cccs2)c1 (centres undefined)	-8%
CCOC(=O)Nc1ccc(=O)n(Cc2c(Cl)cccc2Cl)c1	-27%
N/C(Cc1ccc([N+](=O)[O-])cc1)=N\OC(=O)c1ccc2ccccc2c1	-12%
O=C(CN1C(=O)CSCC1=O)NCc1ccc(F)cc1	-11%
Cc1ccc(C2C(C(=O)c3sc(C)nc3C)=C(O)C(=O)N2CCN2CCOCC2)o1 (centres undefined)	-6%
CCN(CC)S(=O)(=O)c1ccc2c(c1)nc(SCC(=O)NC1CC1)n2-c1ccccc1OC	-16%
CCOc1ccc(-c2nnc(NC3=NCCCCC3)o2)cc1	-9%
CCn1c(COc2cccc(OC)c2)nnc1SCC(=O)Nc1cc(OC)ccc1OC	-11%
O=C1C2C(c3ccccc3)C=CC(c3ccccc3)C2C(=O)N1c1cccnc1 (centres undefined)	-15%
COc1ccc(-c2nn[nH]n2)cc1OC	-11%
Cc1cccc(C(C)(C)C)c1OCCn1ccnc1	4%
C=CCn1c(=NC(=O)c2ccco2)sc2cc(C(=O)OCC)ccc21	19%
CCOC(=O)c1ccc(NC(=O)CCc2nc(-c3cccc(C)c3)no2)cc1	-8%
CCN(CC)C(=O)C(=O)c1cccn1-c1ccccc1C#N	-13%
COc1ccc(C(C)NC(=O)c2ccc(Cl)cc2)cc1OC (centres undefined)	-13%
CC(=O)Nc1ccc(C(=O)OCc2ccccc2Cl)cc1	-16%
COc1ccc(-c2cn3c(C)c(C(=O)Nc4cccc(NC(C)=O)c4)sc3n2)cc1	-5%
COCCSc1ccccc1C(=O)NCc1ccco1	8.9µM*
CCCOc1ccc(N2C(=O)CC(SC(=NCC)Nc3cccc(F)c3)C2=O)cc1 (centres undefined)	-12%
O=C(Oc1ccc(C(=S)N2CCOCC2)cc1Br)c1ccccc1F	32µM*
O=C(O)CNS(=O)(=O)c1cccc2nsnc12	10%
COc1ccc(/C=C/C(=O)OCC(=O)Nc2ccc(Cl)cc2F)cc1S(=O)(=O)N1CCOCC1	-11%
CCOc1ccc(N(CC(=O)Nc2ccccc2)S(C)(=O)=O)cc1	-5%
Cc1cc(C)n(C(=O)Cn2nc(C(F)F)cc2C)n1	-5%
N#Cc1ccsc1NC(=O)COc1ccc(-c2nnco2)cc1	-21%
Cc1c(C#N)sc2nc(-c3ccccc3)nc(N3CCCC3)c12	?
O=C1c2ccsc2SCCN1Cc1ccc(Cl)cc1	-7%
COc1ccc(S(=O)(=O)N2CCc3ccccc3C2)cc1OC	-13%
CCCc1cc(NCC2CCCO2)n2c(nc3ccccc32)c1C#N (centres undefined)	?
Cc1ccc(N=Cc2c(O)n(-c3nccs3)c(=O)c3ccccc23)c(C)c1	-5%
COCc1cc(C)nc(OCC(=O)N/N=C/c2cc(C)n(-c3c(C)cccc3C)c2C)c1C#N	-15%
O=C(Nc1ccccc1Br)C(=O)N1CCCC1	-1%
Nn1c(SCC(=O)N2CCCCCC2)nnc1-c1ccncc1	-2%
CC(C)(C)n1nc2c(c1NC(=O)Cc1cccc3ccccc13)CS(=O)C2 (centres undefined)	-13%
CCCCSc1nc(O)c(C2OC(=O)c3c2ccc(OC)c3OC)c(=O)n1C (centres undefined)	-5%
O=C(c1ccc(COc2ccc(F)cc2)o1)n1cccn1	-11%
Following part
SMILES	HPGD inh
O=C(Nc1ccc(Br)cc1)c1ccccc1CC[N+](=O)[O-]	-27%
CCOC(=O)N1CCN(C(=O)CCCn2c(=S)[nH]c3ccc(Br)cc3c2=O)CC1	-12%
COC(=O)N1c2ccccc2C23[C@@H]4CN5CCC[C@]6(CCC12C(O)(C6)C4=O)[C@H]53	-2%
O=C(COC(=O)C1CCN(S(=O)(=O)c2ccc3c(c2)OCCO3)CC1)Nc1cc(C(F)(F)F)ccc1Cl	-5%
C/C(=N\NC(=O)c1nn(C)cc1Br)c1cccc(NC(=O)C2CCCC2)c1	-10%
COc1ccc(S(=O)(=O)NCCSC(C)(C)C)cc1	-6%
CC(=O)OCC(OC(C)=O)C(OC(C)=O)C(OC(C)=O)C(OC(C)=O)C(COC(C)=O)OC(C)=O (centres undefined)	-9%
CCc1ccc(-c2nc(CN3CCC(C(=O)NCCN(CC)c4ccccc4)CC3)c(C)o2)cc1	-14%
COc1ccc(C)cc1NC(=O)C1CCCN(S(=O)(=O)c2cnc[nH]2)C1 (centres undefined)	-10%
O=C(O)c1cc(S(=O)(=O)NCc2ccco2)c(Cl)cc1Cl	-18%
CC(C)n1c(SCC(=O)c2ccc3c(c2)OCCO3)nc2c1c(=O)n(C)c(=O)n2C	-7%
O=S(=O)(c1cccc2nsnc12)N1CCN(C/C=C/c2ccccc2)CC1	-6%
COc1ccccc1NC(=O)c1ccc(S(=O)(=O)N2CCOCC2)cc1	-5%
Cc1c(C(=O)OCC(=O)N2CC(=O)Nc3ccccc32)oc2ccccc12	-16%
O=C(c1cccnc1NCc1ccc(F)cc1)N1CCOCC1	-15%
Cc1ccc(C)c(NS(=O)(=O)c2cc(C(=O)O)ccc2Cl)c1	-5%
CCOc1ccccc1-c1cc(C(=O)N/N=C/c2ccc(O)c(OC)c2)c2ccccc2n1	-10%
CC(=O)c1ccc(-n2nnnc2SCC(=O)N2CCc3ccccc3C2)cc1	-14%
O=C(COC(=O)CCCCCN=C1NS(=O)(=O)c2ccccc21)Nc1ccc(Cl)c(Cl)c1	-3%
CCOC(=O)Cc1ccc2sc(-c3ccccc3)nc2c1	-6%
Cc1cccc(NC(=O)C2(C)CC3c4ccccc4C2c2ccccc23)c1 (centres undefined)	-10%
CCN(CC)S(=O)(=O)c1ccc(OC)c(NC(=O)c2cc([N+](=O)[O-])ccc2Cl)c1	-12%
Cc1ccc(NC(=S)/N=C(\N)Nc2nc(C)c3ccccc3n2)cc1C	-27%
CCOc1ccc(CC(C(N)=O)C(N)=O)cc1CN(C)C	-3%
CN1CCN(c2ccccc2NC(=O)c2ccc(OCc3ccccc3)cc2)CC1	-7%
Cc1csc(N(C)C(=O)CSc2nnc(COc3ccccc3C)o2)n1	-16%
c1ccc(CCN2CCN=C2Cc2ccccc2)cc1	-4%
Cc1ccc2c(ccc[n+]2CC(=O)c2ccccc2)c1	-11%
CCCNc1nc(OC(C(F)(F)F)C(F)(F)F)nc(OC(C(F)(F)F)C(F)(F)F)n1	-20%
COc1cc(C(=O)Nc2nc(-c3ccc(C)cc3)cs2)ccc1OCC(=O)N1CCOCC1	-14%
CNC(=O)CSc1nnc(-c2ccco2)n1-c1ccccc1OC	-5%
c1ccc2c(c1)OCC(c1nn3c(Cn4nnc5ccccc54)nnc3s1)O2 (centres undefined)	10µM*
Cc1cc(C(=O)CSc2nnnn2-c2ccc(O)cc2)c(C)n1Cc1ccc2c(c1)OCO2	-4%
O=C(C1CCCN(S(=O)(=O)c2ccccc2[N+](=O)[O-])C1)N1CCCC1 (centres undefined)	-7%
NC(=O)C1CCN(C(=O)Cn2cccc2C(=O)c2ccccc2)CC1	-7%
COc1cc(OC)c(OC)cc1/C=N/NC(=O)CC1C(=O)NN=C1C (centres undefined)	?
O=C(O)CC1S/C(=N/N=C/c2ccc(-c3ccc(Cl)cc3[N+](=O)[O-])o2)NC1=O (centres undefined)	8.9µM*
COc1ccc(-c2[nH]c(-c3ccc(F)cc3)nc2SCC(=O)NC2CCCC2)cc1	?
CC(=O)N1CCN=C1SCc1c(F)cccc1Cl	-4%
O=C1CC(N2CCC(c3nc4ccccc4[nH]3)CC2)C(=O)N1Cc1ccccc1 (centres undefined)	-4%
Cc1ccc(NC(=O)N2CCC(NC(=O)C(C)(C)C)CC2)cc1	-7%
Cc1ccc(-n2c(SCC(N)=O)nc3c([nH]c4ccccc43)c2=O)cc1	-5%
Brc1cc(Br)c2nc(-c3cccs3)ccc2c1	-8%
O=[N+]([O-])c1ccccc1N/N=C/c1c[nH]c2ccccc12	-12%
c1ccc(-c2nc(NCc3ccco3)c3ccccc3n2)nc1	-14%

3 entries out of the list above, arranged by the value under HPGD inh, high to low:
SMILES	HPGD inh
c1ccc2c(c1)OCC(c1nn3c(Cn4nnc5ccccc54)nnc3s1)O2 (centres undefined)	10µM*
O=C(O)CC1S/C(=N/N=C/c2ccc(-c3ccc(Cl)cc3[N+](=O)[O-])o2)NC1=O (centres undefined)	8.9µM*
Cc1c(N=C2NC(=O)/C(=C/c3cccc([N+](=O)[O-])c3)S2)c(=O)n(-c2ccccc2)n1C	2.5µM*

(list continues)
SMILES	HPGD inh
COc1cc(OC)cc(C(=O)NC(=S)Nc2ccc(Cl)c(C(=O)O)c2)c1	-10%
Brc1cc2[nH]cnc2c2ccccc12	22µM*
O=c1c2c(nc3nc(COc4ccccc4)[nH]n13)CCC2	-3%
CCOC(=O)c1c(C)oc2ccc(NS(=O)(=O)c3cccs3)cc12	-18%
CCCOc1ccc(C(=O)C(CCC(CNCC)C(=O)c2ccc(OCCC)cc2)CNCC)cc1 (centres undefined)	1%
COc1ccc(NC(=O)N[C@@H](CCSC)C(=O)O)cc1Cl	-11%
CNC(=O)c1csc(-c2ccc(C)cc2)n1	-27%
CC(C)C(C)NC(=O)COc1ccc(S(=O)(=O)N2CCOCC2)cc1[N+](=O)[O-] (centres undefined)	-12%
C=CCN1C(=O)C(C)S/C1=N\S(=O)(=O)c1ccc(Cl)cc1 (centres undefined)	-17%
CS(=O)(=O)N1CCC(C(=O)Nc2ccc(Br)cc2F)CC1	-5%
CCOC(=O)C1C(c2ccc(C)o2)NC(=O)NC1(O)C(F)(F)F (centres undefined)	-2%
CCC(C(=O)NC1CCCCC1)n1c(SCc2ccc(F)cc2)nc2ccncc21 (centres undefined)	-3%
CCOC(=O)c1c(C)cc(OC)cc1O	?
CCCOc1cc(C)c(S(=O)(=O)n2ccc(C)n2)cc1C	-16%
C=CCNC(=O)c1ccc(C(=O)c2ccccc2)cc1	13µM*

A draw from above in order of length of the SMILES, highest first:
SMILES	HPGD inh
COc1cc(OC)cc(C(=O)NC(=S)Nc2ccc(Cl)c(C(=O)O)c2)c1	-10%
NC(=O)C1CCN(C(=O)Cn2cccc2C(=O)c2ccccc2)CC1	-7%
Cc1cccc(C(C)(C)C)c1OCCn1ccnc1	4%

Remaining list, next part:
SMILES	HPGD inh
CC(C)(C)NC(=O)c1cccc2c1OC(C)(C)C2	-12%
O=C(Nc1nc(-c2ccc(Cl)cc2Cl)cs1)C1CCCO1 (centres undefined)	?
Cc1nnc(NC(=O)C2CCCN(S(=O)(=O)Cc3ccccc3)C2)s1 (centres undefined)	-3%
Cc1ccc(S(=O)(=O)/N=S(/C)c2ccccc2)cc1 (centres undefined)	-9%
O=C(NCCN1CCc2ccccc2C1)C1CC(=O)N(C2CCCC2)C1 (centres undefined)	?
